Screening results from PubChem BioAssay.
INS promoter inh: TRM-6 insulin promoter activity inhibition. inhibition, % at 2 µM. 130,000 tested, 0.9% active. TRM-6 cells (human fetal islet line), insulin promoter-eGFP reporter, imaging; reporter expression induced with tamoxifen;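 active = inhibition above the mean plus 3 SD, with well images judged a real hit on visual review, cut at about 60% in these data, passing the limit was not always enough; inconclusive = inhibition over the cutoff but images rejected on review; inactive = inhibition not above the cutoff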
PKD1 inh: inhibitors of human PKD1 kinase; Q15139; PKD1 kinase fluorescence polarization assay; inhibition, %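 (about 10 µM by stock and volumes)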; 200,000 tested, 0.056% active; AID 797;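 active = inhibition of 50% or more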;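 note: controls were vehicle for no effect and a reference inhibitor for full effect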
Target sequence (Q15139 whole entry, looked up): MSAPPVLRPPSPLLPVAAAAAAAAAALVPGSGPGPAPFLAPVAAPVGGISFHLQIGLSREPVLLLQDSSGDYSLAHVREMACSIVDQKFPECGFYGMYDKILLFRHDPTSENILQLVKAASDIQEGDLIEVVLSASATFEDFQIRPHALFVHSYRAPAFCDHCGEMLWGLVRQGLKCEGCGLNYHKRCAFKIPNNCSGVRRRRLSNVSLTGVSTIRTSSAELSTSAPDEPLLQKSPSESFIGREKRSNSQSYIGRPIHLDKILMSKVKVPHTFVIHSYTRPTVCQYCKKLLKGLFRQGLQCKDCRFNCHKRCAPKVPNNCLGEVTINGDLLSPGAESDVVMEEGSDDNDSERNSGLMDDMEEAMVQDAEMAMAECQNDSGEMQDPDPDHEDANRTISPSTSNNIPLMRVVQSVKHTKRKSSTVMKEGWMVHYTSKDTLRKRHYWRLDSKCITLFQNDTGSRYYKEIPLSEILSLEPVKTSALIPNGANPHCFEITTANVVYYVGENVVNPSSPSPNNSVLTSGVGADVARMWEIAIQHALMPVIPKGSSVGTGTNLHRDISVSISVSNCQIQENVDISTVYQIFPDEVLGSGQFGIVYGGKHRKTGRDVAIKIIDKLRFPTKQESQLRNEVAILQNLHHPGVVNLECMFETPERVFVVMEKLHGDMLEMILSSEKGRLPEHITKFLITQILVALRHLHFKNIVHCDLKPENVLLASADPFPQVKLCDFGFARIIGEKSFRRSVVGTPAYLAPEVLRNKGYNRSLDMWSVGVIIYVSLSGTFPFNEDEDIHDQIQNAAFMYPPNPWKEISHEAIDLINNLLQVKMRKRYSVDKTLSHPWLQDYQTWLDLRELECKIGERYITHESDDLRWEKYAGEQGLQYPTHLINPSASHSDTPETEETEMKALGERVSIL
HSV replic up: increases HSV replication in cells | HSV replication augmentation in cells, fold increase | maximum fold increase | 220,000 tested, 0.005% active | AID 1956;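 active = peak rise of 1.5-fold or more in the series; inconclusive = self-fluorescent or not available for retest; tested in PC3 cells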;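 note: first round at 10 µM; read as green reporter fluorescence; hits show the peak of a series up to 25 µM; 1 = signal of infected wells without compound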
GALR2 ag: activates the human galanin receptor 2 | AID 803 | activation, %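 (tested at 5 µM)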 | 140,000 tested, 0.48% active | GALR2-expressing cells, agonist activation read-out;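 active = above mean plus 3 SD of all compounds, about 5% in these data, not always enough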;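 note: 0% = vehicle buffer wells and 100% = reference agonist at full effect; tested in CHO reporter cells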
RGS16-Gao: modulates binding between human RGS16 and Galphao; bead-based flow cytometry RGS16-Galphao binding, fluorescence; actives lie on both sides; binding response (% of control), % at 10 µM; 220,000 tested, 0.38% active; AID 1441;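 active = below 25% or above 175%, edge rows of some plates excepted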;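 note: Galphao activated by GDP with aluminum fluoride before binding; 100% = wells without compound and 0% = beads without RGS; some results beyond the cut were filed as inactive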
INS promoter inh cell count: also measured in INS promoter inh; calls as there; normalized cell count, %; measured here: cell count, toxicity; reference of the scale not given here;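 cells exposed to compound for 48 h; stained nuclei by imaging scaled within each plate; lower means fewer cells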
HSV replic up primary fold: also measured in HSV replic up; calls as there; fold increase; compound at 10 µM; measured here: primary screen fold increase 10 uM; tested in PC3 cells;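 GFP signal in the first replicate; 1 = infected wells without compound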
Starred values were filed as active, the others as inactive; i = inactive; u = inconclusive; x = no result given; & = joins results of further samples.

SMILES	INS promoter inh	INS promoter inh cell count	PKD1 inh	HSV replic up	HSV replic up primary fold	GALR2 ag	RGS16-Gao
Cn1c(C(O)c2ccccc2)nc(Cl)c1Cl (configuration not stated)	15	70	-2	i	0.94	-1.4	102
CCOC(=O)c1ccc2nc(C)c(CC)c(Cl)c2c1	0	102	2	i	0.96	x	136
Cc1cccc(C)c1NS(=O)(=O)c1ccc2c(c1)C(=O)c1ccccc1C2=O	x	x	7	i	1	-0.1	111
Cc1cccc(C(=O)Nc2ccccc2N2CCN(c3ccc(F)cc3)CC2)c1	-10	112	2	i	0.96	-1.0	102
CC(C)CN(C(=O)CSc1nncn1-c1ccccc1)c1c(N)n(CC(C)C)c(=O)[nH]c1=O	-8	53	-9	i	0.98	x	103
O=C(COc1ccccc1)Nc1ccccc1N1CCN(c2ccc(F)cc2)CC1	x	x	-1	i	1.1	-2.2	98
Cc1cccc(OCc2nc(-c3ccc(Br)o3)no2)c1	0	147	-4	i	0.97	x	107
CC(Sc1n[nH]c(N)n1)C(=O)Nc1ccc(Cl)cn1 (configuration not stated)	x	x	1	i	0.94	x	106
Cc1ccccc1NC(=S)N(C)C1(c2ccccc2Cl)CCCCC1=O (configuration not stated)	-6	149	-8	i	1.1	-2.7	99
CCN(CC)CCN1C(=O)Cn2c(C)c(C)c3cccc1c32	-16&-8	169&114	0&14	i	0.81&0.99	-0.2	106&98
O=C(C1CCCO1)N(c1ccc(F)cc1)C1C=CS(=O)(=O)C1 (configuration not stated)	-111	114	-4	i	0.92	x	93
CCOc1ccc(C2=Nn3c(nnc3-c3ccccn3)SC2)cc1	x	x	-3	i	0.82	-0.8	166
N=C1C(c2ccccc2)=C(O)CN1CCCO	x	x	-5	i	0.92	x	99
CCn1c(SCC(=O)NCc2cccs2)nc2c1c(=O)n(C)c(=O)n2C	9	86	-4	i	0.95	-0.2	125
CSc1cccc(NC(=O)CSc2nc3ccccc3o2)c1	x	x	-4	i	1.3	-1.5	98
O=C(Nc1nnc(SCc2ccccn2)s1)C1CC(=O)N(c2ccccc2)C1 (configuration not stated)	x	x	-3	i	1.1	-1.6	94
CNc1nc(-c2ccccc2)cc(C)c1S(C)(=O)=O	-16	106	0	i	1.1	x	93
COc1ccc(C(=O)Nc2cccc3c2C(=O)NC3=O)cc1S(=O)(=O)N1CCOCC1	x	x	-2	x	x	-0.3	102
COc1cc(OC)cc(C(=O)N[C@H](C(=O)OCC(N)=O)C(C)C)c1	-37	119	-11	i	0.99	1.2	66
CCN(CC)CCOC(=O)c1ccc(NC(=O)C2(c3ccccc3)CCCC2)cc1	16	122	-4	i	1	0.4	99
COc1ccc(CNc2nc3c(c(C(F)(F)F)n2)CCCCC3)cc1	-4	76	-10	i	1	0.7	102
COC(=O)CCCC1=CC2=CC(=O)C(C)(OC(=O)c3cccs3)C(=O)C2=CN1c1ccc(OC)cc1 (configuration not stated)	x	x	x	i	0.98	x	99
CC(=O)c1ccc(NC(=O)c2ccc3nc(-c4ccco4)c(-c4ccco4)nc3c2)cc1	4	117	6	u	x	0.7	54
CCn1cc(C(=O)OCc2ccc(F)cc2)c(=O)c2ccc(C)nc21	19	45	-7	i	0.92	-0.4	102
COCCNC(=O)Cn1nc(-c2ccccc2OC)ccc1=O	x	x	1	i	1	-2.1	383
SMILES	INS promoter inh	INS promoter inh cell count	PKD1 inh	HSV replic up	HSV replic up primary fold	GALR2 ag	RGS16-Gao
CC(C)CNC(=S)NNC(=O)c1nn(C)cc1Cl	-17	77	1	i	1	-0.9	85
O=C(C1COc2ccccc2O1)N1CCOCC1 (configuration not stated)	21	125	-4	i	0.98	-1.2	99
Cc1ccc(S(=O)(=O)CCC(=O)Nc2nccs2)cc1	3	100	7	i	0.98	-2.2	101
Cc1sc2ncn(CC(=O)Nc3cccc(S(N)(=O)=O)c3)c(=O)c2c1-c1ccccc1	x	x	x	i	1.4	x	102
Cc1cccc(OCC(=O)Nc2nc3ccc([N+](=O)[O-])cc3s2)c1C	-94	113	-16	x	x	-2.5	97
O=C(N/N=C/c1ccc2cccnc2c1)c1ccco1	x	x	-4	i	0.9	x	100
Cc1nc2nc(CSc3ccc(Cl)cc3)cc(=O)n2[nH]1	11	69	-11	i	0.99	-0.2	108
O=C(Nc1cccnc1)c1cc(-c2ccco2)on1	-13	105	-4	i	1.3	-2.5	100
C=CCN(C(=O)Nc1ccccc1)C1CC(=O)N(c2ccc(OC)cc2)C1=O (configuration not stated)	-35	129	1	i	0.9	-0.1	88
O=C(NCCCN1CCCC1=O)NC1CCCCC1	42	57	-1	i	0.98	-1.3	103
O=C(NC1CCN(C(=S)NCc2ccco2)CC1)C12CC3CC(CC(C3)C1)C2	2	91	1	i	0.88	-0.2	111
NC(=O)C1CCN(S(=O)(=O)c2cccc(S(=O)(=O)N3CCCCC3)c2)CC1	38	115	-7	x	x	-1.5	108
CCOC(=O)c1ccc2[nH]c3ccccc3c2c1	x	x	3	i	0.97	x	104
CCOc1ccc2c(c1)-c1c(ssc1=S)C(C)(C)N2C(=O)c1ccco1	7	110	-8	i	0.69	-1.3	161
COc1ccc(NC(=O)c2cc(CN3C(=O)c4ccccc4C3=O)ccc2OC)cn1	x	x	-3	i	1	1.9	98
CCCc1nc(SCC(=O)Nc2cc(C)on2)c2c(=O)n(C)c(=O)n(C)c2n1	x	x	-16	i	0.84	-0.7	107
O=C(O)Cn1cc(/C=C/[N+](=O)[O-])c2ccccc21	0	192	-5	i	0.95	x	100
CNC(=S)N(Cc1ccccc1)Cc1cccnc1	x	x	x	i	1	x	97
CCCn1nnnc1NC(=O)COc1ccc(Cl)cc1C	-9	95	-3	x	x	-2.9	2.3*
CC(C)=CC(=O)Nc1nc2ccc([N+](=O)[O-])cc2s1	24	116	-4	i	0.87	x	92
Fc1ccccc1Cn1nnc2c(NCCc3ccccn3)ncnc21	x	x	-1	i	1	-1.2	103
CC(=O)c1ccc2c3c(cccc13)C(=O)N(c1c(C)nn(C)c1C)C2=O	20	119	3	i	1.2	20*	112
COC(=O)c1ccc(S(=O)(=O)NCc2ccccn2)n1C	x	x	x	i	1.1	x	100
COc1ccc(NC(=O)CSc2ncc(-c3ccc(F)cc3)n2Cc2ccco2)cc1	-275	94	-7	i	0.98	-1.7	61
Cc1cc(C(=O)OCC(=O)c2ccc(Cl)c([N+](=O)[O-])c2)c2cccc(C)c2n1	-19	102	1	i	0.93	-0.5	93
SMILES	INS promoter inh	INS promoter inh cell count	PKD1 inh	HSV replic up	HSV replic up primary fold	GALR2 ag	RGS16-Gao
COc1ccc(CCNC(=O)C(NS(=O)(=O)c2ccc3c(c2)CCN3C(C)=O)C(C)C)cc1OC (configuration not stated)	x	x	7	i	0.92	x	102
OC(COCc1ccc(Cl)cc1)CN1CCN(c2ccccn2)CC1 (configuration not stated)	28	73	5	i	1	-1.1	108
CC(C)COP(=O)(OCC(C)C)C(Nc1ccccc1)c1ccc2c(c1)OCO2 (configuration not stated)	x	x	1	x	x	-1.7	246
COc1cc2nc(NCC3CCCO3)n3nc(-c4cccnc4)nc3c2cc1OC (configuration not stated)	x	x	-10	x	x	-0.9	100
O=c1nc(/C=C/c2ccc(O)c(O)c2)oc2ccccc12	x	x	x	i	1	x	62
O=C1/C(=C/c2cccnc2)Oc2cc(OS(=O)(=O)c3ccccc3)ccc21	0	64	5	i	0.91	-0.8	105
CNC(=S)/N=C(\Nc1ccc(C)cc1)c1ccccc1	x	x	x	i	0.92	x	104
Cc1ccc(NC(=O)c2ccccc2Cl)cc1-n1cnnn1	x	x	1	i	0.9	x	100
O=C(Nc1ccc(F)cc1)Nc1ccc(N2CCOCC2)c2nonc12	x	x	-13	i	0.86	x	48
CCOC(=O)c1c(C)[nH]c(C(=O)COC(=O)c2ccc(O)cc2O)c1C	x	x	x	i	0.95	x	107
O=C(CNS(=O)(=O)c1ccccc1)NCC(=O)OCc1ccc(C(=O)c2ccccc2)cc1	34	135	2	i	0.97	-0.7	100
Cc1ccc(-c2nnc(NC3CCCCC3)c3ccccc23)cc1S(=O)(=O)N1CCN(C)CC1	3	185	4	i	0.96	-0.1	130
COc1ccc(C(=S)N2CCOCC2)cc1OS(=O)(=O)c1ccccc1[N+](=O)[O-]	-10	70	2	i	0.99	-0.7	95
Cc1cc(C)nc(NC2=NCC(=O)N2CCc2c[nH]c3ccccc23)n1	-86	156	0	u	x	-1.6	141
Cn1ncc2c(NNC(=O)c3ccccc3Cl)ncnc21	6	127	-4	i	1	-0.7	100
Cc1cc(/C(O)=C2\C(=O)C(=O)N(CCN(C)C)C2c2ccncc2)ccc1OCc1ccccc1 (configuration not stated)	x	x	15	i	1.3	-0.5	109
COc1cc(C(=O)NCC(c2cccnc2)N2CCN(c3ccc(F)cc3)CC2)cc(OC)c1OC (configuration not stated)	-35	73	1	i	0.92	x	104
Cc1ccc(-c2cc(C(=O)Nc3ccc(S(=O)(=O)Nc4nc(C)cc(C)n4)cc3)c3ccccc3n2)cc1	-21	92	-6	i	0.93	-0.7	113
Cc1cc([N+](=O)[O-])c(-c2ccc(/C=N/n3cnnc3)o2)cc1Cl	x	x	1	i	0.93	-1.4	112
COCCn1c(N)c(N(Cc2ccccc2)C(=O)Cc2c(Cl)cccc2Cl)c(=O)[nH]c1=O	x	x	-3	i	0.98	x	99
C[C@H]1CCC[C@]2(O[C@@H](CCO)C[C@H](O)[C@H]2O)O1	-30	40	-7	i	1.1	-0.8	114
Cc1ccc(NC(=O)c2cc(=O)c3ccccc3o2)cc1	6	62	9	i	0.97	-1.2	101
NC1=NCC(O)=C1c1nc2ccccc2[nH]1	x	x	2	i	1	x	97
O=C(CN(c1ccccn1)S(=O)(=O)c1ccccc1)N/N=C/c1cccc([N+](=O)[O-])c1	x	x	1	i	1	0.5	193
CCOc1ccc(NC(C)C(=O)N/N=C/c2ccc([N+](=O)[O-])cc2)cc1 (configuration not stated)	x	x	-2	i	0.91	x	107
SMILES	INS promoter inh	INS promoter inh cell count	PKD1 inh	HSV replic up	HSV replic up primary fold	GALR2 ag	RGS16-Gao
Cc1ccc(C(=O)NCc2ccc3c(c2)OCO3)cc1N1CCCC1=O	x	x	-5	i	0.92	0.3	108
CC(=O)Nc1ccc(S(=O)(=O)NCCSCc2cccc(Cl)c2)cc1	-48	113	6	i	0.92	-1.3	109
COc1cccc(-c2nc3ccc(O)cc3c(=O)o2)c1	-6	102	12	i	0.96	-1.7	104
O=C(Nc1ccc(-c2cn3ccccc3n2)cc1)c1cccs1	x	x	3	i	0.96	x	102
CCC(=O)Nc1cc(SCCO)cc([N+](=O)[O-])c1	22	79	-4	i	1.2	0.0	102
N=c1c2c(n(Cc3ccc(F)cc3)c3c1CCC3)CCC2	x	x	-8	i	0.82	0.0	68
C/C(=N\NC(=O)c1ccc(Cl)cc1)c1cccc(NC(=O)C(C)C)c1	x	x	5	i	0.9	-0.3	100
c1ccc2nc(N3CCOCC3)cnc2c1	-61	151	3	x	x	-1.3	108
CC(C)N1C(=O)CCC1C(=O)NC1CCCC1 (configuration not stated)	x	x	-4	i	0.89	-2.7	103
COC(=O)C1=C(C)N(CCc2ccc(OC)c(OC)c2)C(=O)C1	35	96	-7	i	1	-0.5	98
Cc1c(C(=O)Nc2ccc(S(N)(=O)=O)cc2)oc2ccc(Cl)cc12	x	x	-7	i	0.95	x	106
CCn1nc(C)c(CN2CCN(Cc3ccc(OC)c(C)c3C)C(CCO)C2)c1C (configuration not stated)	x	x	-4	i	1	x	97
CCOc1ccc(Oc2ccc(Cl)cc2NC(=O)CCNC(C)=O)cc1	x	x	2	i	0.89	x	106
O=C(CN1c2ccccc2Sc2ccccc21)NNC(=O)Nc1cccc(Cl)c1	x	x	x	i	0.72	x	102
O=C(/C=C\Nc1cccc(F)c1)c1ccc2c(c1)OCO2	28	70	-11	i	0.98	-0.8	99
COc1cc(O)c(C(CCN2CCN(c3ccccc3)CC2)c2cc(OC)c(OC)c(OC)c2)c(OC)c1 (configuration not stated)	x	x	x	i	0.72	x	103
CC(=O)N1CCN(S(=O)(=O)c2ccc(F)c(Cl)c2)CC1	x	x	-6	i	0.91	x	101
Nc1ncncc1-c1ccc2ccccc2c1	x	x	x	i	0.95	x	113

Sorted by molecular weight (highest first): some entries from above.
SMILES	INS promoter inh	INS promoter inh cell count	PKD1 inh	HSV replic up	HSV replic up primary fold	GALR2 ag	RGS16-Gao
Cc1cccc(C)c1NS(=O)(=O)c1ccc2c(c1)C(=O)c1ccccc1C2=O	x	x	7	i	1	-0.1	111
O=C1/C(=C/c2cccnc2)Oc2cc(OS(=O)(=O)c3ccccc3)ccc21	0	64	5	i	0.91	-0.8	105
CCn1cc(C(=O)OCc2ccc(F)cc2)c(=O)c2ccc(C)nc21	19	45	-7	i	0.92	-0.4	102
O=C(C1COc2ccccc2O1)N1CCOCC1 (configuration not stated)	21	125	-4	i	0.98	-1.2	99

Hits appear at their usual frequency. Share with any hit: about 1.3%.
